Rce1 inh – yeast Ras-converting enzyme inhibition; Q03530; hit rate 0.27% among 290,000; calls only; yeast membranes, quenched prenylated peptide cleavage fluorescence;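 active = fall in fluorescence gain of 50% or more versus controls, with final raw signal at or below 3038400; inconclusive = same 50% fall but final raw signal above 3038400; inactive = fall in fluorescence gain under 50%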;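 also: plate controls were neutral control wells for no effect and wells lacking membranes for full effect; tested at 10 µM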
Target sequence (Q03530 whole entry, looked up): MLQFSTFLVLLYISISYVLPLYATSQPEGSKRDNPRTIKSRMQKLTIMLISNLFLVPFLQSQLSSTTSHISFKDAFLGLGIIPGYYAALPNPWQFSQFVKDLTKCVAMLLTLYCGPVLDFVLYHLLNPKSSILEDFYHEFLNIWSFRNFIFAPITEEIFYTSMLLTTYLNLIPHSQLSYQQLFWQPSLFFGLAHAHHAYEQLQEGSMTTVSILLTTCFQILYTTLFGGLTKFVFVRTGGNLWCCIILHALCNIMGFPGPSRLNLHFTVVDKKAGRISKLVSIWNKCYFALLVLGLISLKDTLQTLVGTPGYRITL
Env fusion inh – blocks HIV Env-driven cell-cell fusion. HeLa-JRFL Env/CEM21 cell fusion, luciferase. inhibition, % at 12.3 µM. hit rate 1.1% among 360,000. AID 651610;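 active = mean replicate inhibition score of at least 50 and every replicate individually at or above 50; inconclusive = only one of the two criteria met; inactive = mean below 50 and not all replicates reaching 50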;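 also: 0% = plate neutral controls and 100% = maraviroc near 300 nM; one replicate is shown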
PABP FP inh – blocks human PABP binding to poly(A) RNA | AID 2014 | hit rate 1% among 290,000 | P11940 | fluorescence polarization | inhibition, % at 35 µM;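 active = 50% or more with normal probe brightness, or confirmed in later tests; inconclusive = above 50% with abnormal brightness, or retests that disagree; inactive = below 50% or failed in later tests; about a fifth of its hits are not listed in these tables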;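 also: calls also rest on retests at 20 µM and on dose response follow-up; controls were probe without protein and protein plus probe with vehicle; some compounds called inactive have numbers as strong as hits; many hits fall short of the cut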
Target sequence (P11940 whole entry, looked up): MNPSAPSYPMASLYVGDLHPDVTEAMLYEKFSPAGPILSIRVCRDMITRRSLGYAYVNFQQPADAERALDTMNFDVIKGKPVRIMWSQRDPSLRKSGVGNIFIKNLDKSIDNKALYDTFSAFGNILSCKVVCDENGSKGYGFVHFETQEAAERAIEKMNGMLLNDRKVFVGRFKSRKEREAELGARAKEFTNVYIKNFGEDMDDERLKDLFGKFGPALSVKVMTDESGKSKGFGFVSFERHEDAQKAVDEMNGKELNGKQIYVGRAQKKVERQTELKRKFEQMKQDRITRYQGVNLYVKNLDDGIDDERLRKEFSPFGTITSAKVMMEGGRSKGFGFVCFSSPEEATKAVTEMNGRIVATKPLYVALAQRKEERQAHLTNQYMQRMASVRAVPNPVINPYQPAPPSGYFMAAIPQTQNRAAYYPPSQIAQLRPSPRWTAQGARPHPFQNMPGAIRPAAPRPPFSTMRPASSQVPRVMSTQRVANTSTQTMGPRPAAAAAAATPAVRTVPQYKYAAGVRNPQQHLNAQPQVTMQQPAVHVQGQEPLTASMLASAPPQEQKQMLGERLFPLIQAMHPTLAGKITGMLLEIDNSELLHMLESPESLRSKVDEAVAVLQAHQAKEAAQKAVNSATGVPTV
eIF4H inh – inhibitors of RNA binding by human eIF4H; inhibition, % at 35 µM; AID 2012; eIF4H fluorescence polarization binding assay; hit rate 0.94% among 290,000; Q15056;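 active = 50% or more with normal probe brightness, or confirmed in later tests; inconclusive = above 50% with abnormal brightness, or retests that disagree; inactive = below 50% or failed in later tests; about a fifth of its hits are not listed in these tables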;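 also: calls also rest on retests at 20 µM and on dose response follow-up; 0% = protein and probe with vehicle and 100% = probe without protein; strong numbers were not always called active; many hits fall short of the cut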
MT1-MMP act inh – blocks activation of human MT1-MMP | HT1080 RFP-PRO-GFP cells, GFP/RFP ratio fluorescence, overnight; percent of plate control window, DMSO zero | GFP/RFP ratio change, % at 20 µM | hit rate 0.061% among 360,000;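 active = GFP/RFP ratio change of at least 30% with cell ATP level not reduced by more than half and red fluorescence within 50% of control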; also: strong numbers were not always called active
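Compound: 20 µM single dose, 1% DMSO / System: HT1080 RFP-PRO-GFP cells / Controls: DMSO and RFP-L50D-GFP cell wells / Read-out basis: GFP/RFP fluorescence ratio / Schedule: overnight compound exposure at 37 °C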
UUG fidelity – modulators of start codon recognition fidelity in yeast; S. cerevisiae UUG-firefly luciferase reporter, luminescence/redox ratio; activity score, % at 18.7 µM; hit rate 0.13% among 350,000; AID 602363;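 active = replicate mean at a twofold rise or more, about +100% in these data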;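 also: firefly luciferase made from a UUG start codon reports start codon fidelity; reporter light over untreated wells divided by growth signal over untreated wells; some hits fall short of that in this replicate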
CSC inhib – blocks cancer stem cells; inhibition, % at 7.5 µM; cancer stem cell-like cells viability, luminescence; hit rate 1.1% among 300,000;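 active = mean at 75% or more and at least half the replicates too; inconclusive = mean and replicates disagree; tested in HMLE shEcad cells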;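 also: 0% = median of negative and 100% = median of positive control wells; the first replicate is given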
PABP FP inh retest – also measured in PABP FP inh; calls as there; inhibition, %; compound at 20 µM; confirmation repeats;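 mean of two retest wells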
MT1-MMP act inh RFP – recorded beside MT1-MMP act inh, whose call it bears; RFP signal change, %; measured here: RFP expression control read;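 0 = vehicle wells; hits needed this value within 50% of zero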
Active calls of the source: *; i = inactive; ? = inconclusive; . = not tested or not shown.

SMILES | Rce1 inh | Env fusion inh | PABP FP inh | eIF4H inh | MT1-MMP act inh | MT1-MMP act inh RFP | UUG fidelity | CSC inhib | others
Clc1nc(Cl)nc(NCCC2=CCCCC2)n1 | i | -6 | 2 | 5 | 1 | 4 | . | -19
CC1=NN(C(=O)c2csc(C)c2)C(O)(C(F)(F)F)C1 (configuration not stated) | i | . | 4 | 6 | 7 | 7 | -12 | -4
CN(C)CCN(C(=O)/C=C/c1cccs1)c1nc2c(F)cc(F)cc2s1 | i | -3 | 0 | -24 | 1 | 0 | . | 0
OCC1(CO)CCCC(CO)(CO)C1O | . | 22 | . | . | 6 | -1 | 3 | .
CC(CC(=O)Nc1cc(C(F)(F)F)ccc1Cl)c1ccccc1 (configuration not stated) | i | . | -6 | -3 | -1 | 0 | -23 | 4
Cc1ccccc1C(=O)O/N=C(\N)c1ccncc1 | i | -418 | -13 | 2 | 7 | 0 | . | -12
Cn1c(=O)n(CCc2ccccc2)c(=O)c2c1nc1n2CCCN1c1ccccc1 | i | . | 4 | -8 | 8 | -1 | -9 | 0
Cn1cc(CN2CCN(c3cnccn3)CC2)c(-c2cccc(Cl)c2)n1 | . | -1 | -6 | -7 | 0 | -1 | . | 7
c1ccc2c(OCCCN3CCCCCC3)cccc2c1 | i | 7 | -4 | 8 | 7 | -1 | -7 | -7
Cc1ccc(C)n1-c1cccc(C(=O)O)c1 | i | . | 77* | 91* | . | . | . | -4
CCN(CC)CCNC(=O)Cn1cnc2sc(C)c(S(=O)(=O)N3CC(C)CC(C)C3)c2c1=O (configuration not stated) | i | 2 | 6 | 1 | -7 | -6 | -28 | 5
O=C(NC(Cc1ccccc1)C(=O)N1CCCC1C(=O)O)c1ccccc1 (configuration not stated) | i | . | 6 | -11 | 3 | 6 | -3 | .
C=CCc1cc(Cl)ccc1OCCCNC(C)CC (configuration not stated) | i | 2 | 9 | 10 | 0 | -1 | -1 | 18
Cc1ccc(C)c(NC(=O)C2CCCN(S(=O)(=O)c3ccc4[nH]c(=O)ccc4c3)C2)c1 (configuration not stated) | i | 24 | -1 | -8 | 5 | 1 | -17 | 5
CC(C)C(C(=O)NCC1CCCO1)N(Cc1ccco1)C(=O)CNS(=O)(=O)c1ccccc1 (configuration not stated) | i | . | 12 | 1 | 3 | 4 | 5 | 4
CC(C)N(C(=O)COC(=O)[C@H](C)NC(N)=O)c1ccccc1 | i | 21 | -5 | 6 | -4 | 0 | . | .
O=C(/C=C/c1ccc(N2CCC(c3ccccc3)=N2)cc1)c1ccccc1 | i | 3 | -9 | ? | . | . | . | 92*
O=C(NCC(c1ccco1)N1CCCCC1)c1cccc(S(=O)(=O)Nc2ccc(F)cc2)c1 (configuration not stated) | . | 5 | . | . | 1 | -1 | 9 | .
O=C1C(Cl)=C(NCCc2ccccc2)C(=O)c2ccccc21 | . | 6 | . | . | -54 | 9 | -21 | .
O=C(CCNS(=O)(=O)c1ccc(F)cc1)N1CCN(c2ncccn2)CC1 | . | 10 | . | . | 2 | 4 | -7 | .
CC1CN(C(=O)c2cccs2)CCN1C(=O)c1cccs1 (configuration not stated) | i | . | 1 | 12 | -4 | -3 | -9 | -25
COc1ccccc1CNC(=O)CCNS(=O)(=O)/C=C/c1ccc(C)cc1 | . | 1 | . | . | -2 | -3 | . | -9
Cc1ccnc(N/C=C(\C#N)c2nc(-c3cccc(Br)c3)cs2)c1 | i | . | 0 | ? | -239 | 16 | -7 | 16
CCCCOc1ccc(C(=O)NCC(=O)OCC(=O)N2CCN(S(=O)(=O)c3ccc(C)cc3C)CC2)cc1 | i | -14 | -8 | -6 | 1 | 3 | . | -4
CC(=O)Nc1cccc(C(=O)OCC(=O)NCc2ccc(F)cc2)c1 | i | 0 | 2 | -3 | 3 | 1 | 8 | 2
COc1cccc(-n2nc(C(=O)O)c3ccccc3c2=O)c1 | i | -44 | -2 | -4 | -1 | 0 | . | -9
Cn1c(/N=C/c2ccccc2[N+](=O)[O-])nc2ccccc21 | i | 4 | 15 | 16 | -2 | 4 | -20 | -13
Cn1nccc1NS(=O)(=O)c1ccc(F)cc1 | i | -16 | 12 | -1 | 1 | 3 | . | -5
N#Cc1ccc(CSc2ccc(S(=O)(=O)N3CCCCCC3)cn2)cc1 | . | 19 | . | . | 2 | -7 | -8 | .
COc1ccc(/C=C/C(=O)c2ccc(O)cc2)cc1CN1CCOCC1 | i | 7 | 6 | -6 | -10 | -11 | . | 16
Cc1ccc2nc(C)c(C(=O)N/N=C/c3ccc(N4CCOCC4)cc3)cc2c1 | i | . | 32 | 2 | 3 | 0 | -7 | -12
COc1ccccc1CNC(=O)CS(=O)Cc1nc(-c2ccccc2C)oc1C (configuration not stated) | i | -21 | -2 | 4 | -3 | 3 | -13 | .
COc1cccc(-c2nc(-c3ccc4c(c3)NC(=O)CO4)cs2)c1 | i | -74 | -4 | 1 | 4 | 1 | . | 1
CS(=O)(=O)N(CC(=O)NCc1ccco1)c1ccc(OCc2ccccc2)cc1 | i | 1 | 6 | -1 | 9 | -1 | -10 | -4
CC(NC(=O)c1ccc2c(c1)C(=O)N(Cc1cccnc1)C2=O)c1ccccc1 (configuration not stated) | i | 6 | 2 | 10 | -1 | 1 | -13 | -2
COc1ccc(CNC(=O)C2CCN(C(=O)Cc3ccccc3)CC2)cc1 | i | 1 | -2 | -7 | 3 | 0 | -12 | .
CC(C)(C)c1ccc(O)c(O)c1 | . | . | . | . | 4 | 6 | -1 | 86*
COc1ccc(/C=C/C(=O)NC(C)CCc2ccccc2)cc1OC (configuration not stated) | i | -1 | -5 | -2 | -2 | -3 | . | -2
Cc1c(C(=O)O)oc2ccc(S(=O)(=O)N3CCCC3)cc12 | i | -5 | 1 | 3 | 3 | 4 | 9 | -1
COc1ccc(C(=O)Nc2cc(Cl)ccc2-n2cncn2)c(OC)c1OC | . | 10 | . | . | -2 | -4 | -8 | 5
COc1ccc(NC(=S)NC2CCCCC2)c(OC)c1 | i | -9 | 67 | ? | -1 | 1 | . | 10 | PABP FP inh retest=28
CCOC(=O)c1c(C)[nH]c(C(=O)OC)c1CCC(=O)OC | i | . | 10 | 6 | 3 | 7 | -12 | .
Cc1n[nH]c(C)c1S(=O)(=O)N1CCC(C(=O)O)CC1 | i | . | -9 | -16 | 11 | -1 | 4 | 9
Cc1ccccc1NC(=O)N1C2CCCC1CC(NC(=O)C(C)(C)C)C2 (configuration not stated) | i | -25 | 4 | -4 | -2 | 0 | -2 | .
CCN1C(=C2C(=O)c3ccccc3C2=O)C=Cc2ccccc21 | i | 18 | 3 | -1 | -46 | 1 | 4 | -4

Among those listed so far, 2 contain a cyano group:
SMILES | Rce1 inh | Env fusion inh | PABP FP inh | eIF4H inh | MT1-MMP act inh | MT1-MMP act inh RFP | UUG fidelity | CSC inhib | others
Cc1ccnc(N/C=C(\C#N)c2nc(-c3cccc(Br)c3)cs2)c1 | i | . | 0 | ? | -239 | 16 | -7 | 16
N#Cc1ccc(CSc2ccc(S(=O)(=O)N3CCCCCC3)cn2)cc1 | . | 19 | . | . | 2 | -7 | -8 | .

Next results:
SMILES | Rce1 inh | Env fusion inh | PABP FP inh | eIF4H inh | MT1-MMP act inh | MT1-MMP act inh RFP | UUG fidelity | CSC inhib | others
CC(C)CCNC(=O)C(=O)NCCC1=CCCCC1 | i | -16 | -3 | -4 | 2 | 6 | 5 | 8
N#C/C(=C\c1c(N2CCOCC2)nc2ccccn2c1=O)C(=O)NC1CCS(=O)(=O)C1 (configuration not stated) | i | 16 | -1 | -9 | -1 | 1 | 0 | 20
O=C(Nc1nc2cc3c(cc2s1)OCCO3)c1ccncc1 | i | -75 | 0 | -11 | -2 | -25 | . | 7
O=C(c1cc(-c2ccccn2)nc2ccc(Br)cc12)N1CCN(S(=O)(=O)c2ccccc2)CC1 | i | -13 | -1 | -2 | -4 | -6 | . | -14
Cc1ccc(S(=O)(=O)Nc2ccc(C(=O)N3CCCC3)cc2)c(C)c1NS(C)(=O)=O | . | -17 | 0 | -10 | 1 | 0 | -22 | -3
COc1ccc(NC(=O)C23CC4CC(CC(Cl)(C4)C2)C3)cc1S(=O)(=O)N1CCOCC1 | . | 33 | . | . | -4 | -3 | 2 | 0
O=C(Nc1nnc(-c2ccc(F)cc2)s1)Nc1ccccc1F | i | -20 | 4 | -12 | 0 | -1 | -11 | -14
COc1ccc(N2CCN(CCC(O)c3ccc4ccccc4c3)CC2)cc1 (configuration not stated) | i | 6 | 6 | -2 | 3 | 0 | -14 | 32
COc1ccccc1NS(=O)(=O)c1cc2c3c(c1)CC(=O)N3CCC2 | i | -8 | 4 | -13 | 2 | 0 | 1 | -12
Cc1ccc(S(=O)(=O)NCc2ccc(C(=O)NC3CC3)cc2)cc1 | i | . | 2 | 9 | 4 | 8 | -21 | 1
CCCCn1c(-c2cccc(F)c2)nc2c1c(=O)[nH]c(=O)n2CC(C)C | i | -27 | 8 | 9 | 2 | -1 | -7 | .
Cc1oc(-c2ccccc2)cc1C(=O)NC1CCN(Cc2ccccc2)CC1 | i | 5 | -20 | -9 | 1 | -2 | 14 | -3
CC(=O)NCCNc1nc2c(-c3ccccc3)nnn2c2ccccc12 | i | -18 | 5 | -2 | 4 | 4 | . | -2
COc1cc([C@@H]2c3cc4c(cc3[C@H](O)[C@H]3COC(=O)[C@H]23)OCO4)cc(OC)c1OC | i | . | 6 | -4 | 14 | 3 | -5 | 59
O=C(Cn1c(NCCCO)nc2ccccc21)c1ccc(Cl)cc1 | i | 19 | 18 | 11 | -7 | -6 | 3 | 21
Cc1cc(C)cc(N=C2SC(CC(=O)Nc3ccccc3)C(=O)N2CCN2CCOCC2)c1 (configuration not stated) | i | 0 | 28 | -4 | -2 | -4 | 1 | 7
CCS(=O)(=O)N1Cc2ccccc2CC1C(=O)NCCc1c[nH]c2ccccc12 (configuration not stated) | i | 1 | 6 | -5 | -2 | -2 | -3 | -1

Of the compounds above, these have a Cl atom.
SMILES | Rce1 inh | Env fusion inh | PABP FP inh | eIF4H inh | MT1-MMP act inh | MT1-MMP act inh RFP | UUG fidelity | CSC inhib | others
Clc1nc(Cl)nc(NCCC2=CCCCC2)n1 | i | -6 | 2 | 5 | 1 | 4 | . | -19
CC(CC(=O)Nc1cc(C(F)(F)F)ccc1Cl)c1ccccc1 (configuration not stated) | i | . | -6 | -3 | -1 | 0 | -23 | 4
Cn1cc(CN2CCN(c3cnccn3)CC2)c(-c2cccc(Cl)c2)n1 | . | -1 | -6 | -7 | 0 | -1 | . | 7
C=CCc1cc(Cl)ccc1OCCCNC(C)CC (configuration not stated) | i | 2 | 9 | 10 | 0 | -1 | -1 | 18
O=C1C(Cl)=C(NCCc2ccccc2)C(=O)c2ccccc21 | . | 6 | . | . | -54 | 9 | -21 | .
COc1ccc(C(=O)Nc2cc(Cl)ccc2-n2cncn2)c(OC)c1OC | . | 10 | . | . | -2 | -4 | -8 | 5
COc1ccc(NC(=O)C23CC4CC(CC(Cl)(C4)C2)C3)cc1S(=O)(=O)N1CCOCC1 | . | 33 | . | . | -4 | -3 | 2 | 0
O=C(Cn1c(NCCCO)nc2ccccc21)c1ccc(Cl)cc1 | i | 19 | 18 | 11 | -7 | -6 | 3 | 21

High-throughput results: PubChem, several laboratories

An excerpt; the hit share may differ from the screen's.
